# Source: PubChem (several laboratories)
# MT1-MMP act inh = blockers of MT1-MMP proenzyme processing, primary screen, HT1080 RFP-PRO-GFP cells, GFP/RFP fluorescence. Matrix metalloproteinase-14 (Homo sapiens), P50281. GFP/RFP ratio fluorescence, overnight; percent of plate control window, DMSO zero. GFP/RFP ratio change, % at 20 µM. 360,000 tested, 0.061% active;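 active means GFP/RFP ratio change of at least 30% with cell ATP level not reduced by more than half and red fluorescence within 50% of control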; further: strong numbers were not always called active
#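 Assay system: HT1080 RFP-PRO-GFP cells. Benchmarks: DMSO vehicle wells and RFP-L50D-GFP reporter cell wells. Times: overnight cell settling, then overnight compound exposure, 37 °C, 5% CO2. Compound: 20 µM single dose, 1% DMSO. Read-out basis: GFP/RFP fluorescence ratio.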
# Rce1 inhib = yeast Rce1p protease inhibitors, primary screen, biochemical, fluorescence, cell-free homogeneous; yeast membranes, quenched prenylated peptide cleavage fluorescence; calls only; CAAX prenyl protease 2 (Saccharomyces cerevisiae (strain ATCC 204508 / S288c)), Q03530; 290,000 tested, 0.27% active; AID 2563, 2010;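 active means fall in fluorescence gain of 50% or more versus controls, with final raw signal at or below 3038400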;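 further: plate controls were neutral control wells for no effect and wells lacking membranes for full effect; tested at 10 µM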
# Target sequence (Q03530 whole entry, looked up): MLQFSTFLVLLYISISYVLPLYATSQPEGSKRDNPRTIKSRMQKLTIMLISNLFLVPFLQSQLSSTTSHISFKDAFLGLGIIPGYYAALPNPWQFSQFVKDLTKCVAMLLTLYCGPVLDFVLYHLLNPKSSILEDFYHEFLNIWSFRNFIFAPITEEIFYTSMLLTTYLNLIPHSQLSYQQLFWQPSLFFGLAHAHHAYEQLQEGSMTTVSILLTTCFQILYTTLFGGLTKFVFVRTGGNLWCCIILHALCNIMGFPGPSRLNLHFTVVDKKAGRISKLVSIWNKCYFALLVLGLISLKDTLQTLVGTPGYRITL
# CSC inhib = cancer stem cell viability inhibitors, primary screen, luminescence; cancer stem cell-like cells viability; inhibition, % at 7.5 µM; 300,000 tested, 1.1% active; AID 2717, 2010;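 active means mean at 75% or more and at least half the replicates too; tested in HMLE shEcad cells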;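 further: 0% = median of negative and 100% = median of positive control wells; the first replicate is given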
# Yeast UUG start = modulators of yeast start codon fidelity, primary screen, whole organism, S. cerevisiae, single point, plate reader. S. cerevisiae UUG-firefly luciferase reporter, luminescence/redox ratio. activity score, % at 18.7 µM. 350,000 tested, 0.13% active. AID 602363, 2012;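 active means replicate mean at a twofold rise or more, about +100% in these data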;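 further: firefly luciferase made from a UUG start codon reports start codon fidelity; reporter light over untreated wells divided by growth signal over untreated wells; some hits fall short of that in this replicate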
# PABP FP inh = PABP poly(A) RNA binding inhibitors, primary screen, biochemical, fluorescence polarization, uHTS; Polyadenylate-binding protein 1 (Homo sapiens), P11940; inhibition, % at 35 µM; 290,000 tested, 1% active;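 active means 50% or more with normal probe brightness, or confirmed in later tests; about a fifth of its hits are not listed in these tables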;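 further: calls also rest on retests at 20 µM and on dose response follow-up; controls were probe without protein and protein plus probe with vehicle; some compounds called inactive have numbers as strong as hits; many hits fall short of the cut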
# Target sequence (P11940 whole entry, looked up): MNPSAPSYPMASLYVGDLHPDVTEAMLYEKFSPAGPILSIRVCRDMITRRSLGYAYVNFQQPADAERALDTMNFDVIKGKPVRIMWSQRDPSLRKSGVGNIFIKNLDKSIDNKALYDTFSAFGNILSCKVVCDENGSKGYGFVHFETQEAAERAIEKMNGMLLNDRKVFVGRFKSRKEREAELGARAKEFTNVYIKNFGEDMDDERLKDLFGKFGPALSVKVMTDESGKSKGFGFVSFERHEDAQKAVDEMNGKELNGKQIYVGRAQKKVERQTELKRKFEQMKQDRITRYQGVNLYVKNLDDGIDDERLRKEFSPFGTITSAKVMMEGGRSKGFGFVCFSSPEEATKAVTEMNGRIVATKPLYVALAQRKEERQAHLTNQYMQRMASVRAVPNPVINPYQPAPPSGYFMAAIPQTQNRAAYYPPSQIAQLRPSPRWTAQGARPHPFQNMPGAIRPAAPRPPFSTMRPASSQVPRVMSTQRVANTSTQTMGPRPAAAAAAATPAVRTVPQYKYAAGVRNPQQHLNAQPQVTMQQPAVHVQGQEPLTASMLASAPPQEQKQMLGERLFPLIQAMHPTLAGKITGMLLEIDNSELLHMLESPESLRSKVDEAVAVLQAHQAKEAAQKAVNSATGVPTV
# eIF4H inh = human eIF4H binding inhibitors, primary screen, translation initiation inhibitor project, biochemical, uHTS, fluorescence polarization | Eukaryotic translation initiation factor 4H (Homo sapiens), Q15056 | eIF4H fluorescence polarization binding assay | inhibition, % at 35 µM | 290,000 tested, 0.94% active | AID 2012, 2009;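 active means 50% or more with normal probe brightness, or confirmed in later tests; about a fifth of its hits are not listed in these tables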;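 further: calls also rest on retests at 20 µM and on dose response follow-up; 0% = protein and probe with vehicle and 100% = probe without protein; strong numbers were not always called active; many hits fall short of the cut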
# Env fusion inh = inhibitors of HIV-1 Env-driven cell-cell fusion, primary screen, HeLa-JRFL effector, CEM21 target cells, luciferase | AID 651610, 2012 | inhibition, % at 12.3 µM | 360,000 tested, 1.1% active;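 active means mean replicate inhibition score of at least 50 and every replicate individually at or above 50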;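 further: 0% = plate neutral controls and 100% = maraviroc near 300 nM; one replicate is shown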
# eIF4H inh retest = recorded beside eIF4H inh, whose call it bears; inhibition, %; compound at 20 µM; confirmation average;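 mean of two retest wells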
# PABP FP inh retest = further read-out of PABP FP inh, marked with its call; inhibition, %; compound at 20 µM; confirmation repeats;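 mean of two retest wells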
# MT1-MMP act inh RFP = recorded beside MT1-MMP act inh, whose call it bears; RFP signal change, %; measured here: RFP expression control read;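 0 = vehicle wells; hits needed this value within 50% of zero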
# An asterisk follows results filed as active; i = inactive; nt = no result given; & = joins results of further samples. Only part of the results is shown; count on the stated rates, not on these rows.
SMILES,MT1-MMP act inh,MT1-MMP act inh RFP,Rce1 inhib,CSC inhib,Yeast UUG start,PABP FP inh,eIF4H inh,Env fusion inh,others
NC(c1csc(Nc2cnccn2)n1)C1CCCCC1 (stereo not drawn),-4,-3,nt,nt,-17,nt,nt,-2,
CC(C)Cn1cnc2c(Sc3c([N+](=O)[O-])ncn3C)nc(N)nc21,0,0,nt,nt,-11,nt,nt,-4,
Cc1cc(SCC#N)n2nc(C)c(-c3ccccc3)c2n1,0,-5,i,4,-27,7,10,i,
O=C(CNC(=O)c1ccc(Br)o1)NCC(=O)OCc1ccccc1,0,5,i,nt,-9,nt,nt,5,
CCc1nn(C(C)C(=O)N2CCN(c3ccc(OC)cc3)CC2)c(=O)c2cc3occc3n12 (stereo not drawn),-8,-15,i,51,-12,-7,-16,-112,
COc1cc2ccccc2cc1C(=O)Nc1ccc(C)cc1,-8,-9,i,73,-10,6,-1,-237,
O=S1(=O)C=C(SCCN2CCCCC2)c2ccccc21,2,0,i,-4,nt,6,-7,nt,
COc1cc(CN2CCNC(=O)C2CC(=O)N(C)CCN2CCOCC2)cc(OC)c1 (stereo not drawn),1,5,i,nt,-6,-4,6,-6,
Cc1ccc(SCC(=O)NCCCN2CCOCC2)cc1,3,10,i,-7,-17,8,-3,nt,
Cc1cccc(NC(=O)c2ccc3[nH]c(=O)c(=O)[nH]c3c2)n1,-1,2,i,-15,-9,11,5,-6,
CC(C)OCCCn1c(SCC(=O)Nc2ccccc2C(F)(F)F)nc2nccnc2c1=O,-1,2,i,-10,-13,nt,nt,-2,
COc1ccc(C2NCCC3(O)CCCCC23)c(OC)c1OC (stereo not drawn),2,1,i,-9,0,-22,-14,-25,
Cc1occc1C(=O)N1N=C(C2CC2)CC1(O)C(F)(F)F (stereo not drawn),5,0,nt,-11,nt,-4,2,nt,
COc1ccc(CCNC(=O)c2ccc(CS(=O)Cc3ccc(Cl)cc3)o2)cc1OC (stereo not drawn),2,-2,i,-16,0,4,-11,18,
Cc1ccc(OCc2ccc(C(=O)NN)o2)c([N+](=O)[O-])c1,0,4,i,18,nt,0,3,-25,
O=C(NCCCN1CCOCC1)/C(=C/c1ccco1)NC(=O)c1ccccc1,0,0,i,-11,-7,7,2,-35,
O=C(NCCCn1ccnc1)c1cc(-c2cccnc2)nc2ccc(Br)cc12,-2,-3,i,-9,nt,-8,-2,-4,
CCC(C)[C@H]1CNCCN1CCC12CC3CC(CC(C3)C1)C2 (stereo partly drawn),-1,3,nt,22,-15,nt,nt,11,
CCOc1nc2c(c(=O)n(C)c(=O)n2C)n1Cc1ccccc1Cl,0,-21,i,-1,-12,-2,77,nt,eIF4H inh retest=5;PABP FP inh retest=-3
COc1ccc(N2C(=O)CC(NNC(=O)c3cc(C)oc3C)C2=O)cc1 (stereo not drawn),2,5,i,0,nt,-4,9,23,

# The final 5 compounds of the section before open the next one.
SMILES,MT1-MMP act inh,MT1-MMP act inh RFP,Rce1 inhib,CSC inhib,Yeast UUG start,PABP FP inh,eIF4H inh,Env fusion inh,others
O=C(NCCCN1CCOCC1)/C(=C/c1ccco1)NC(=O)c1ccccc1,0,0,i,-11,-7,7,2,-35,
O=C(NCCCn1ccnc1)c1cc(-c2cccnc2)nc2ccc(Br)cc12,-2,-3,i,-9,nt,-8,-2,-4,
CCC(C)[C@H]1CNCCN1CCC12CC3CC(CC(C3)C1)C2 (stereo partly drawn),-1,3,nt,22,-15,nt,nt,11,
CCOc1nc2c(c(=O)n(C)c(=O)n2C)n1Cc1ccccc1Cl,0,-21,i,-1,-12,-2,77,nt,eIF4H inh retest=5;PABP FP inh retest=-3
COc1ccc(N2C(=O)CC(NNC(=O)c3cc(C)oc3C)C2=O)cc1 (stereo not drawn),2,5,i,0,nt,-4,9,23,
CCOc1cc2[nH]c(=S)n(CCN3CCCCC3CC)c(=O)c2cc1OCC (stereo not drawn),-3,-4,i,0,-19,39,-5,10,
COCCNC(=O)c1ccccc1NC(=O)Nc1ccccc1,0,1,i,nt,nt,-10,0,-15,
C=CC[C@H](CC(=O)NCCO)C(=O)NC[C@@H](OC(=O)[C@@H](CC=C)CC(=O)OC(C)(C)C)c1ccccc1,-6,-2,nt,4,16,nt,nt,1,
CSc1nc(C)c(C(=O)Nc2ccccc2)c(C)c1C#N,1,-5,i,-5,-8,0,-5,nt,
OC(COc1ccc(OCc2ccccc2)cc1)CN1CCOCC1 (stereo not drawn),7,11,i,25,-10,4,0,nt,
CC(C)CCNC(=S)Nc1ccc2nc3n(c(=O)c2c1)CCCCC3,8,-8,i,2,nt,0,-11,25,
O=C(Nc1ccc(N2CCN(C(=O)c3ccccc3)CC2)c(Cl)c1)c1cccnc1,-1,-13,i,-7,-10,-13,-4,86*,
O=C(c1ccc(CSc2nc3ccncc3[nH]2)cc1)N1CCCCC1,6,-7,i,1,-21,1,-4,-12,
CCC(C)(C(=O)NC1CCCCC1)N(C(=O)c1ccccn1)c1ccc(C)cc1 (stereo not drawn),-2,3,i,-12,10,0,-7,-7,
CC(=O)N1CCN(Cc2nc3cc(NC(=O)c4ccc(Cl)cc4)ccc3n2C)CC1,13,-16,nt,3,-15,4,0,nt,
CC1(C(=O)O)CCN1C(=O)COc1ccc(Cl)cc1 (stereo not drawn),-2,-1,nt,nt,-19,nt,nt,7,
CCc1nnc(NC(=O)CCNC(=O)c2ccco2)s1,2,5,i,-6,-6,-2,-9,0,
O=C(CSc1nnc(C2CC2)n1C1CC1)N1CCN(c2ccc(O)cc2)CC1,3,1,nt,nt,-18,nt,nt,1,
Cc1nc2nc(SCC(N)=O)[nH]c2cc1Br,0,8,i,nt,0,7,-2,nt,
CCC(C)(C)c1ccc(OCCCC[n+]2ccccc2)c(C(C)(C)CC)c1,-50,-40,i,105*,nt,7,4,77*,
Clc1ccc(Cc2nc(-c3cccnc3)no2)cc1,0,-3,i,-3,1,-1,-13,-14,
Cc1ccnc(NC(=O)COc2ccc3c(c2)CCC3)c1,-1,0,i,8,-63,nt,nt,-101,
CCc1nnc(NC(=O)CSc2nc3cc(OC)c(OC)cc3cc2C)s1,3,-3,i,3,nt,-13,0,-3,
O=C(CN1CCN(Cc2ccc3c(c2)OCO3)CC1)NCC(F)(F)F,0,1,i,-5,-1,-3,7,-4,
Cc1cc(NS(=O)(=O)c2ccc(NC(=O)CN3C(=O)NC(C)(c4ccccc4)C3=O)cc2)nc(C)n1 (stereo not drawn),0,-1,i,-1,0,nt,nt,-4,

# Of the compounds above, these have fluorine:
SMILES,MT1-MMP act inh,MT1-MMP act inh RFP,Rce1 inhib,CSC inhib,Yeast UUG start,PABP FP inh,eIF4H inh,Env fusion inh,others
CC(C)OCCCn1c(SCC(=O)Nc2ccccc2C(F)(F)F)nc2nccnc2c1=O,-1,2,i,-10,-13,nt,nt,-2,
Cc1occc1C(=O)N1N=C(C2CC2)CC1(O)C(F)(F)F (stereo not drawn),5,0,nt,-11,nt,-4,2,nt,
O=C(CN1CCN(Cc2ccc3c(c2)OCO3)CC1)NCC(F)(F)F,0,1,i,-5,-1,-3,7,-4,

# (cont.)
SMILES,MT1-MMP act inh,MT1-MMP act inh RFP,Rce1 inhib,CSC inhib,Yeast UUG start,PABP FP inh,eIF4H inh,Env fusion inh,others
Cc1ccccc1/[N+]([O-])=C/c1cccs1,1,5,i,0,5,8,3,-6,
COc1ccccc1NC1=NC(CO)(CO)CS1,-1,3,i,-9,5,0,-6,8,
CN(Cc1ccccc1)C(=O)N[C@@H](Cc1ccccc1)C(=O)O,4,-1,i,2,nt,2,-7,nt,
c1ccc(CSc2ccc(-c3ccco3)nn2)cc1,0,0,i,17,nt,-11,13,-61,
COc1cc(C(=O)N2CCN(c3ccccn3)CC2)cc(OC)c1OC,7,2,i,-3,-16,-6,-3,-12,
Cc1ccc(/C=C(/C#N)C(=O)NC(C)c2ccccc2)o1 (stereo not drawn),-1,1,i,-3,-10,-3,2,2,
CC(=O)N1c2ccc(S(=O)(=O)NCCC(=O)NCc3ccc(Cl)cc3)cc2CC1C (stereo not drawn),1,-6,i,-6,0,0,-3,1,
CCCc1nnc(NC(=O)CCC(=O)N2CCN(CCn3c(C)ccc3C)CC2)s1,-1,4,i,-23,-6,-2,-7,-10,
COc1ccc(S(=O)(=O)N2CCN(C(=O)NCc3ccc(C)cc3)CC2)cc1,0,-3,i,1,-6,10,10,-1,
Cc1cccc(NC(=O)NCc2cccnc2)c1C,2,4,i,-3,-8,1,-8,29,
O=S1(=O)CCC(=Nc2ccc(Cl)cc2)c2ccsc21,1,-1,i,-14,nt,-12,0,18,
COc1ccc2nc(SCC(=O)Nc3ccccc3OC)[nH]c2c1,5,2,i,-11,nt,8,-2,15,
Cc1ccc([N+](=O)[O-])cc1N=C1C(=O)Nc2ccccc21,-2,3,i,-5,-21,-5,4,5,
CC(O)c1nc2ccccc2n1Cc1ccccc1 (stereo not drawn),-3,-1,i,-19,-10,-8,-17,-12,
CC(C)Oc1ccc(CN2CCC2(C)C(=O)NCc2cccc3ccccc23)cc1 (stereo not drawn),0,-3,nt,nt,0,nt,nt,3,
O=C(O)c1cccc(NC(=O)c2cccc(S(=O)(=O)Nc3cccc([N+](=O)[O-])c3)c2)c1,0,-1,i,-9,-19,6,-10,-9,
COc1ccc(C2=Nc3nc(-c4ccccc4)cn3C(c3ccc(OC)cc3)C2)cc1 (stereo not drawn),-8,-5,i,nt,nt,8,-6,-7,
O=C(Nc1ccncc1)C1CC1c1ccccc1 (stereo not drawn),-8,-18,i,-20,-18,9,2,42,
O=C(Nc1ccnn1C1CCN(Cc2ccccc2OC(F)F)CC1)c1cccnc1,0,5,i,-6,-10,-9,-10,-4,
CSc1ncc(Cl)c(C(=O)Nc2ccc(NC(C)=O)cc2)n1,2,0,i,-2,6,-11,7,1,

# Reprinted at random: three records from the list, in no set order.
SMILES,MT1-MMP act inh,MT1-MMP act inh RFP,Rce1 inhib,CSC inhib,Yeast UUG start,PABP FP inh,eIF4H inh,Env fusion inh,others
CN(Cc1ccccc1)C(=O)N[C@@H](Cc1ccccc1)C(=O)O,4,-1,i,2,nt,2,-7,nt,
COc1ccccc1NC1=NC(CO)(CO)CS1,-1,3,i,-9,5,0,-6,8,
O=C(Nc1ccnn1C1CCN(Cc2ccccc2OC(F)F)CC1)c1cccnc1,0,5,i,-6,-10,-9,-10,-4,

# New compounds follow.
SMILES,MT1-MMP act inh,MT1-MMP act inh RFP,Rce1 inhib,CSC inhib,Yeast UUG start,PABP FP inh,eIF4H inh,Env fusion inh,others
CN(C)CCCOC(=O)C1c2ccccc2Oc2ccccc21,2,6,i,4,-11,2,-10,nt,
CCOC(=O)c1[nH]c(C)c(C(=O)Nc2ccccc2C)c1C,-7,-12,i,nt,-7,3,-3,-151,
CCc1cccc(CC)c1NC(=O)CO/N=C(\N)CC(=O)NC1CCCCC1,-3,2,i,-15,nt,1,-3,-18,
COC(=O)C(=N/Nc1ccccc1C(=O)OC)/C(C)=N/O,0,0,i,-8,-31,2,0,-4,
CC(C)CNC(=O)/C=C/C(=O)O,0,2,i,-7,nt,-1&-6,-5&-10,-9,
